# Screens from PubChem.
# CBX7 inh: blocks human CBX7 binding to H3K27me3 peptide; O95931; AlphaScreen His6-CBX7 / biotin-H3K27me3 peptide binding; stronger effect = lower value; normalised signal (fraction of DMSO) (concentration not given with the values); actives 1.1% (n = 66,000); AID 1224903; in the data active = normalised signal below about 0.5;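 note: 100 nL library stock added to about 20 µL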
# Target sequence (O95931 whole entry, looked up): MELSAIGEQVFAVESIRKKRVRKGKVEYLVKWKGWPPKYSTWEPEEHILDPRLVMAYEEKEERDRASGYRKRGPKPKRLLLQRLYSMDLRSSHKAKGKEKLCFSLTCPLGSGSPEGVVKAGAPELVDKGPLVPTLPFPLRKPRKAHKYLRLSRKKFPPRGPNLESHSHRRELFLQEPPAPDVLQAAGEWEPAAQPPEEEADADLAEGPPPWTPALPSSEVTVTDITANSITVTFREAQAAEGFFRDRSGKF
# CBX7 inh z-score: second read-out of CBX7 inh, no call of its own (marks repeat the call); z-score; measured here: z-score of CBX7 signal; some inactives read as strong as hits; reference of the scale not given here;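 same signal on another scale; lower means less binding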
# * = called active by the depositor. Some of the compounds tested; rates above refer to the full screens.
# Start of the data: the first 3 records, to show the layout:
molecule	CBX7 inh	CBX7 inh z-score
COc1ccc(Nc2c(-c3ccccn3)nc3ccc(Br)cn23)cc1	0.84	-3.8
O=C(Nc1cccc2ccccc12)N(CCO)C1CCS(=O)(=O)C1 (stereo not given)	1.1	0.91
O=C(Nc1ccc(O)c(-c2nc3ccccc3s2)c1)c1ccc(-c2ccccc2)cc1	1	0.2

# The whole of this part (from the top)
molecule	CBX7 inh	CBX7 inh z-score
COc1ccc(Nc2c(-c3ccccn3)nc3ccc(Br)cn23)cc1	0.84	-3.8
O=C(Nc1cccc2ccccc12)N(CCO)C1CCS(=O)(=O)C1 (stereo not given)	1.1	0.91
O=C(Nc1ccc(O)c(-c2nc3ccccc3s2)c1)c1ccc(-c2ccccc2)cc1	1	0.2
Cc1ccccc1Nc1c(-c2ccccc2)nc2ccc(Br)cn12	1	0.3
COc1ccc(S(=O)(=O)Nc2cccc(C)c2C)c2cccnc12	1	0.13
Cc1n[nH]c(C)c1CCCCCCOc1ccccc1Cl	0.92	-1.7
Cc1cccc(Nc2nc3nonc3nc2Nc2ccc(Cl)cc2)c1C	0.96	-0.81
O=C(Nc1ccc(Cl)cc1)N(CCCN1CCOCC1)Cc1cccs1	1	0.038
CCN(C(=O)Cc1nc(N)n[nH]1)C1(C(=O)Nc2ccccc2C)CCCCC1	0.67	-6.1
CN(C(=O)c1cc2c(-c3ccccc3F)nn(C)c2s1)C1CCCCC1	0.89	-2.1
CN(C)c1ccc(CN(C(=O)COc2ccc(Cl)cc2)C2CCS(=O)(=O)C2)cc1 (stereo not given)	1.1	0.93
Cc1ccc(OCc2cn3cccnc3n2)cc1	0.92	-0.93
COc1ccc(NC(=O)CCc2c(C)nc3nc(-c4cc(OC)cc(OC)c4)nn3c2C)cc1	0.96	-0.72
CC(C)C(=O)Nc1c(C(=O)c2ccc(Br)cc2)oc2ccccc12	1.3	0.89
CCc1ccc2c(c1)C(O)(CC(=O)c1ccc(OC)cc1)C(=O)N2 (stereo not given)	1.1	1.5
Cc1ccccc1NS(=O)(=O)c1ccc2[nH]cc(C(=O)NC3CCCC3)c(=O)c2c1	0.62	-7.2
COc1cccc(-c2nn(C)c3sc(C(=O)NC(C)c4ccc5c(c4)OCCO5)cc23)c1 (stereo not given)	0.95	-1.4
CCCNC(=O)c1ccc2c(c1)N(Cc1cc(C)ccc1C)C(=O)c1ccccc1S2(=O)=O	1.1	1.4
CCc1ccc(C2=NN(CCC(=O)NCCC(C)C)C(=O)CC2)cc1	1	0.26
O=C(Nc1ccccc1C(F)(F)F)c1cc(-c2ccc(O)cc2)on1	1.1	3.2
Cc1ccc(S(=O)(=O)Nc2cc(Cl)c3oc4c(c3c2)C(=O)CCC4)cc1	0.96	-1.1
COc1ccc(-n2c(C)nc3c(cnn3-c3ccc(Cl)cc3)c2=O)cc1	0.86	-2.2
CCCCN1C(=O)C(O)(CC(=O)c2ccc(CC)cc2)c2cc(Br)ccc21 (stereo not given)	0.64	-0.41
COC(=O)c1ccc(C2C(Oc3ccccc3C)C(=O)N2CCc2ccc(F)cc2)cc1 (stereo not given)	0.98	-0.071
Cc1ccn2c(NC(=O)c3cccc(C(F)(F)F)c3)c(-c3cccs3)nc2c1	1.1	0.094
COc1ccccc1NC(=O)Cn1cnc2sc(C(=O)N3CCC(C(N)=O)CC3)c(C)c2c1=O	0.77	-2.4
O=C(c1cn(-c2ccc(Cl)cc2)c(=O)c2ccccc12)N1CCC2(CC1)OCCO2	1	-0.065
Cc1ccc(NC(=O)CN(c2ccc(C(C)C)cc2)S(=O)(=O)c2c(C)nn(C)c2C)nc1	0.81	-2.9
Cc1ccc(CNC(=O)CSc2nc3nc(C)c(Cc4ccccc4)c(C)n3n2)cc1	1.3	1.8
N#Cc1nc(COc2ccc(F)cc2)oc1N1CCOCC1	0.96	-0.25
CCOC(=O)c1cccc(NC(=O)CC2C(=O)N(Cc3ccccc3)C(C)c3nc4ccccc4n32)c1 (stereo not given)	0.99	-0.23
CCNc1nnc(-c2cc3c(CO)cnc(C)c3oc2=O)s1	1.1	0.78
Cc1cccc(CCNC(=O)C2c3ccccc3C(=O)N3CCc4ccccc4C23)c1 (stereo not given)	1.1	0.16
Cc1ccc(-n2cc(-c3ccccc3)nc2S(=O)(=O)CC(=O)Nc2cccc(C)c2C)cc1	0.69	-3.2
Cc1ccc(Nc2c(-c3ccc(Cl)cc3)nc3ccccn23)cc1	0.98	-0.2
Cc1[nH]c2ccc(F)cc2c1CCNS(=O)(=O)c1ccc(C(C)(C)C)cc1	0.92	-1.7
Cc1cc(C)n(CCOc2nonc2C)n1	0.98	-0.27
Cc1ccc(N(C)S(=O)(=O)c2ccc3[nH]cc(C(=O)NC4CCCC4)c(=O)c3c2)cc1C	1.1	1.1
Cc1ccn2c(Nc3ccc4c(c3)OCCO4)c(-c3c[nH]c4ccccc34)nc2c1	0.51	-11
CCCCN(CCCC)S(=O)(=O)c1ccc2oc(C(=O)Nc3ccc(F)cc3)c(C)c2c1	1.1	3.7
CCOC(=O)c1c(NC(=O)COc2ccc(Br)cc2)sc2c1CCC(C)C2 (stereo not given)	1.1	2.4
Cn1c2ccccc2c2c(C(=O)NCCc3ccc(Cl)cc3)cn(C3CCCC3)c(=O)c21	0.98	-0.39
COc1cc(CN2CCN(Cc3ccc(C)cc3)CC2)cc(OC)c1OC	0.97	-0.73
CCOc1ccc(-c2nc(C#N)c(N3CCOCC3)o2)cc1	1	0.023
Fc1cccc(-c2nn3c(-c4ccccc4)nnc3s2)c1	1.1	2.2
O=C(c1c[nH]c2ccc(S(=O)(=O)Nc3ccc4c(c3)OCCO4)cc2c1=O)N1CCCCC1	0.94	-1
COCCCNC(=O)CN1CCN(Cc2ccc(Cl)cc2)C1=O	0.89	-1.5
Cc1nc(-c2cccc(NC(=O)c3cccc([N+](=O)[O-])c3)c2)cs1	0.87	-3.6
O=C(Nc1cccc(-c2nc3ccc(NC(=O)c4ccccc4)cc3o2)c1)c1ccccc1	1.1	0.056
COc1cc(NS(=O)(=O)c2ccc(NC(=O)COc3ccc(C)cc3)cc2)nc(OC)n1	0.97	-0.32
CC(=O)N1CCc2cc(S(=O)(=O)NCCC(=O)N3c4ccccc4CC3C)ccc21 (stereo not given)	1	0.31
O=S(=O)(Nc1cccc(-c2cn3ccccc3n2)c1)c1cccc(C(F)(F)F)c1	1	0.93
O=C(NCCc1ccc(Cl)cc1)c1cc2c(s1)-c1ccccc1OC2	1.1	2.2
Cc1cc(C)cc(NC(=O)C2CCN(c3ccc(N4CCOCC4)nn3)CC2)c1	0.96	-0.75
O=C(CSc1nc2ccccc2c(=O)n1-c1ccc(C(=O)N2CCOCC2)cc1)N1CCCC1	1.1	0.19
COc1ccc(CCNc2nc(-c3ccc(OC)c(OC)c3)cc(C(F)(F)F)n2)cc1OC	1.1	2.6
CC(C)(C)c1ccc(OCC(=O)Nc2ccc(Cl)cn2)cc1	0.97	-0.8
Cc1ccc(N(C)C(=O)CN(C)S(=O)(=O)c2cccc3cccnc23)cc1	0.95	-1.1
CCCn1nnnc1NCc1ccc(OCC)cc1	0.78	-2.4
COc1cccc(NC(=O)CN2C(=O)c3ccccc3S2(=O)=O)c1	1.2	1.9

# Record cards, as listed above. Order of values: CBX7 inh | CBX7 inh z-score
# CCOC(=O)c1c(NC(=O)COc2ccc(Br)cc2)sc2c1CCC(C)C2 (stereo not given) as listed: 1.1 | 2.4
# Cc1nc(-c2cccc(NC(=O)c3cccc([N+](=O)[O-])c3)c2)cs1 as listed: 0.87 | -3.6
# Fc1cccc(-c2nn3c(-c4ccccc4)nnc3s2)c1 as listed: 1.1 | 2.2

# Further entries follow:
molecule	CBX7 inh	CBX7 inh z-score
Cn1c(=O)c(=O)n(C)c2cc(S(=O)(=O)Nc3cc(C(F)(F)F)cc(C(F)(F)F)c3)ccc21	1.1	0.89
CCCN1Cc2cccc(C(=O)NCc3cccs3)c2C1=O	1	0.029
COc1ccc(-c2nnc(NC(=O)c3ccc(S(=O)(=O)N4CCC(C)CC4)cc3)o2)cc1	0.8	-4.6
Cc1ccc2c(c1)N(CCC(=O)NCc1ccccn1)C(=O)C(C)O2 (stereo not given)	0.51	-6.6
CC(=O)N1CCc2cc(S(=O)(=O)NCCc3ccc(S(N)(=O)=O)cc3)ccc21	0.81	-0.78
O=C(Nc1ccc(-c2nc3ncccc3o2)cc1)c1ccc2c(c1)OCCO2	0.99	-0.49
COCCCNC(=O)CN1C(=O)CCSc2ccccc21	1.1	2.4
O=C(Cn1cnc2c(nnn2Cc2ccc(F)cc2)c1=O)N1CCCC1	0.84	-2.6
COc1ccc(Cl)cc1C(=O)Nc1c2c(nn1-c1ccc(C)cc1C)CSC2	0.9	-1.8
CCOc1ccc(-c2nc(CS(=O)(=O)CC(=O)NCc3ccc(C)cc3)c(C)o2)cc1	0.97	-1.3
CCOC(=O)c1ccc(NC(=O)c2cc3c(n(-c4ccccc4)c2=O)CC(C)(C)CC3=O)cc1	1.2	2.6
Cc1cc(NC(=O)CSc2nc3ccccc3o2)no1	0.78	-2.2
CCCCn1c(CNC(=O)Cc2ccccc2)nc2ccccc21	1.2	2.3
Cc1ccc(Cn2cnc3c(nnn3Cc3ccc(F)cc3)c2=O)cc1	0.94	-1.2
CCc1ccccc1N(C)S(=O)(=O)c1ccc2[nH]cc(C(=O)NC(C)CC)c(=O)c2c1 (stereo not given)	1	0.25
Cc1noc(C)c1S(=O)(=O)N(C)CC(=O)NC1CCCC1	0.99	-0.41
O=C(c1cc2ccccn2n1)N1CCN(c2cccc(C(F)(F)F)c2)CC1	0.98	-0.52
O=C(NCCCN1CCN(C2CCCCC2)CC1)c1cc2c(s1)CS(=O)(=O)C2	1	1.5
O=C(CSc1nnc(-c2cccnc2)n1Cc1ccccc1)Nc1ccc(F)cc1	1.1	2.8
Cc1cc(Nc2cccc(C)c2C)n2ncnc2n1	0.99	-0.25
O=C(c1ccc2c(=O)n3c(nc2c1)CCCCC3)N1CCN(c2cccc(C(F)(F)F)c2)CC1	0.97	-0.47
COc1cc(CN2CCN(Cc3ccccc3Cl)CC2)cc(OC)c1	0.91	-1.6
Cc1ccc2sc(-c3ccc(NC(=O)c4ccccc4Cl)cc3)nc2c1	0.98	-0.77
O=C(O)c1[nH]c2ccc(Cl)cc2c1CC(=O)N1CCN(c2ccccc2)CC1	1.1	1.3
O=C(COc1ccc2oc3c(c2c1)CCCC3)Nc1ccccc1Br	1	0.43
Cc1onc(-c2ccccc2Cl)c1C(=O)Nc1ccc(-c2nc3ccccc3o2)cc1	0.9	-1.4
Cc1ccc2nc(-c3ccc(NC(=O)CCOc4ccccc4)cc3)sc2c1	1.1	2.1
CN(C(=O)CC1Oc2ccccc2NC1=O)C1CCCCC1 (stereo not given)	1.1	0.59
O=C(NCc1ccc(F)cc1)c1ccc(NC2=NC3CS(=O)(=O)CC3S2)cc1 (stereo not given)	1.4	2.7
Cc1ccc(NC(=O)CNC(=O)Cn2ccc3ccccc3c2=O)cc1F	1	2.1
Cc1cccc(CN2CCN(CC(=O)NC3CCCCC3)C2=O)c1	1	0.55
COc1ccc(-n2c(C)nc3cc(C(=O)NCCC4=CCCCC4)ccc32)cc1	1.1	2.6
Cc1ccc(Nc2c(-c3ccc(N4CCOCC4)cc3)nc3ccccn23)cc1	1.1	0.48
COc1ccc(-c2cc3nc(C)c(CCC(=O)Nc4ccc(C)c(Cl)c4)c(C)n3n2)c(OC)c1	1.1	1.6
O=C(NCc1cccs1)c1cc(-c2ccc(Cl)c(Cl)c2)on1	0.97	-0.75
O=C(Nc1cccc(F)c1)c1ccc2c(c1)N(Cc1ccccc1)C(=O)c1ccccc1S2(=O)=O	0.95	-2.5
Cc1cccc(NC2c3ccccc3C(=O)N2Cc2ccccc2)c1C (stereo not given)	0.79	-3
Cc1ccc(CNC(=O)CN2CCN(Cc3ccc(F)cc3Cl)C2=O)cc1	0.98	-0.37
Cc1cccc(C(=O)Nc2ccc(-c3nc4ncccc4o3)cc2)c1	1.1	0.65
COc1ccc(NC(=O)CNC(=O)Cn2c(C)cc3ccccc3c2=O)c(OC)c1	1.1	1.3
CC(=O)Nc1cccc(N2C(=O)CC(Cc3ccc(Cl)cc3)C2=O)c1 (stereo not given)	1.1	1.2
COc1cc(OC)cc(C(=O)N2CC(=O)Nc3ccc(Br)cc3C2c2ccccc2)c1 (stereo not given)	1.1	1.3
FC(F)(F)c1cc(-c2ccc(Cl)cc2)nc(-n2cncn2)n1	0.95	-0.71
COc1ccc(-c2nc(CSCC(=O)NC3CCCc4ccccc43)c(C)o2)cc1 (stereo not given)	1.3	2.9
CC(C)(C)n1cnc2cc(NCc3ccccn3)ccc21	0.73	-5.4
COc1ccc(NC(=O)Cc2cn(C)c3ccccc23)cc1OC	1	0.2
CCCNC(=O)Cn1cnc2sc(C(=O)NCCOC)c(C)c2c1=O	1	0.14
Cc1ccc(C)c(N2CCN(C(=O)Nc3ccc4c(c3)N(C)C(=O)CS4)CC2)c1	0.95	-2.7
Cc1ccc2c(c1)N(CC(=O)NCCc1ccccc1)C(=O)CO2	1.1	1.7
CCOC(=O)c1c(NC(=O)CNCc2ccccc2)sc2c1CCN(C(=O)OCC)C2	1	1.3
O=C(Cn1c(CCNC(=O)c2ccc(F)cc2)nc2ccccc21)c1ccccc1	1	1.1
Clc1ccccc1-c1nnc2sc(-c3ccccc3)nn12	1.1	2.7
O=C(NCCc1nc2ccccc2n1Cc1ccccc1F)c1cccs1	1.2	1.5
O=C(c1nn2c(C(F)(F)F)cc(-c3ccc(Cl)cc3)nc2c1Cl)N1CCOCC1	0.9	-1.3
Cc1cc(-c2csc(Nc3ncccn3)n2)ccc1F	1	0.68
